Rango dissoc inh: prevents RanGTP from dissociating the Rango-importin beta complex; O95149+P62826; Biochemical FRET Rango-importin beta, RanGTP-induced dissociation; Potency, µM (series often up to 46.1 µM), for the others: at the highest dose activity change, negative = inhibition; 340,000 tested, 0.071% active; AID 540253; active means falling FRET ratio curve, often poorly fitted, with flat reads before Ran was added; inconclusive means other falling curves, or compound fluorescence or quenching; inactive means flat or rising ratio curve;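 note: potency is the fitted concentration of half-maximal effect; % of control where 0% means no effect; nearly all actives have a fitted effect of over 45% in size; -100% = wells without RanGTP and RCC1; the record marks most hits as doubtful in a second field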
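FRET read at 45 min, room temperature: inhibitors block the CFP/YFP signal rise when RanGTP (0.6 uM Ran, 2 mM GTP, 0.2 uM RCC1) frees Rango (0.1 uM) from importin beta (0.25 uM). Pre-read after 5 min compound exposure flags interference.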
miR-21 FLuc: raises the signal of a miR-21 reporter. Potency, µM (top dose mostly 38.3 µM), without a hit: at the top dose reporter change, positive = more light. HeLa miR-21 FLuc reporter, luciferase, 48 h. 340,000 tested, under 10 active; active = well fitted rising curve with a large enough effect; inconclusive = small, poorly fitted or top-dose-only effect; inactive = no such curve, though single readings can be large or run the other way;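 note: % of control where 0% means no effect; miR-21 action dims this reporter so a rising signal means less miR-21 action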
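HeLa miR-21-FLuc reporter line, endogenous miR-21; 2000 cells/well in DMEM/10% FBS; compound titration up to ~40uM final, 48 h, 37 degree Celsius; luciferase detection reagent, 15 min lysis, CCD luminescence.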
Rango complex inh: Rango-importin beta binding inhibition; Q14974; Rango CFP/YFP FRET sensor + importin beta, 45 min; Potency, µM (top dose mostly 92.2 µM), without a hit: at the highest dose inhibition of complex formation; 340,000 tested, 0.031% active; AID 540263; active = rising FRET ratio curve, often small or poorly fitted; inconclusive = mostly compound fluorescence or quenching in the first reads; inactive = flat curves in all reads;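 note: potency is the fitted concentration of half-maximal effect; 0% = DMSO wells and 100% = buffer wells lacking importin beta; nearly all actives have a fitted effect of over 15% in size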
Target sequence (Q14974 whole entry, looked up): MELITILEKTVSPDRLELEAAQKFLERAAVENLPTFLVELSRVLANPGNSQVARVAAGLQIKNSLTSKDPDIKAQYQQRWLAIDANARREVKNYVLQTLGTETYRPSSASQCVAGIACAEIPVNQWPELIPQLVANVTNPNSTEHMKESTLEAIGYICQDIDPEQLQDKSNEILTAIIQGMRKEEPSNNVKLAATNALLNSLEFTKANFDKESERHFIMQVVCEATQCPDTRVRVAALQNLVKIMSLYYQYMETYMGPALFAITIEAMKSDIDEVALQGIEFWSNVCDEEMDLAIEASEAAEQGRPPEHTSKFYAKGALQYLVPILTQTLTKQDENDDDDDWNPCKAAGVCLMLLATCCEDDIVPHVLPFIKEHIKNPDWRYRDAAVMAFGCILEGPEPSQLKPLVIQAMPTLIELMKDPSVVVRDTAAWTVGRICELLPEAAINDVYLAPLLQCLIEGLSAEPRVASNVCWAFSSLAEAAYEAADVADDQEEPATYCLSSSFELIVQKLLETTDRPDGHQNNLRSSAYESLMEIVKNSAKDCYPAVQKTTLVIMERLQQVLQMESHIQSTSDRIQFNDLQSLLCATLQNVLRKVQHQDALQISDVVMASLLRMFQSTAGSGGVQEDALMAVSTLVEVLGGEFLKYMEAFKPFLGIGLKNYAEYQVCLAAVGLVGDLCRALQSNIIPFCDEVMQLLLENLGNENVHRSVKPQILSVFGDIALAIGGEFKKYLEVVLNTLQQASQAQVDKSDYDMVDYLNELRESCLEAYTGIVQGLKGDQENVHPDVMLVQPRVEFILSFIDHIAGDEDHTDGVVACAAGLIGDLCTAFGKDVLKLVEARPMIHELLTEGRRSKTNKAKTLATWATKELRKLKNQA
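FRET biosensor (snurportin 1 IBB flanked by EYFP and cerulean), 50 nM, with compound 5 min, then 0.125 microM importin beta in PBS, 1 mM DTT, 0.02% Tween-20, 0.1% BSA. CFP/YFP ratio read after 45 min at room temperature; pre-read flags interference.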
GLA inh pH 4.5: inhibitors of human alpha-galactosidase A at pH 4.5 | P06280 | purified enzyme, 4-MU-alpha-Gal fluorescence, pH 4.5 | activity change, negative = inhibition, % at 105 µM | 230,000 tested, under 10 active | AID 1467; inconclusive = small, poorly fitted or top-dose-only inhibition, or a rising curve; inactive = flat fitted curve, though single readings scatter; no compound was filed as active;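 note: 0% = full activity with enzyme and -100% = basal without enzyme; dose as in the result columns while the protocol names 77 µM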
* hit, by the source's call; u = inconclusive; x = not tested or not shown; & = joins results of further samples. Not all compounds are listed, so the mix of outcomes need not match the whole.

Rango dissoc inh	miR-21 FLuc	Rango complex inh	GLA inh pH 4.5	mol
-4%	x	-0.2%	x	O=C(CN1C(=O)NC2(CCCCC2)C1=O)Nc1cc(C(F)(F)F)ccc1N1CCOCC1
-6%	-9%	2.3%	4	CCOC(=O)N1CCC(N2C(=O)c3ccc(C(=O)NCc4ccco4)cc3C2=O)CC1
-12%	-7%	0.8%	-6	COc1ccc(/C=C/C(=O)O)cc1COc1cccc(C)c1
-8%	x	-1.4%	x	Cc1cc(C)c(C(N)=O)c(SCC(=O)c2cc(C)n(-c3cc(C)on3)c2C)n1
-1%	0%	-1.4%	0	Cc1ccccc1COCCN1CCN(S(=O)(=O)c2ccccc2)CCC1=O
2%	-1%	-4.0%	12	CCOC(=O)CSc1nc2c(c(=O)[nH]c(=O)n2C)n1C/C=C(/C)Cl
0%	-7%	-2.0%	x	Cc1ccc(N=C2NC(=O)C(CO)(CO)S2)cc1
4%	0%	8.0%	x	CC1Cc2cc(/C(O)=C3/C(=O)C(=O)N(CCCn4ccnc4)C3c3cccc([N+](=O)[O-])c3)ccc2O1 (centres undefined)
-14%	9%	0.8%	x	CCOC(=O)N1CCN(c2ncnc3scc(-c4ccccc4)c23)CC1
-10%	0%	-0.1%	-6	COc1cc(C(=O)Nc2cccc(C)c2C)c(Br)c(OC)c1OC
16%	x	0.5%	x	COc1ccccc1NS(=O)(=O)c1cccc(C(=O)NCC(c2cccs2)N(C)C)c1 (centres undefined)
0%	x	0.3%	x	Cc1nnc(NC(=O)C2CCN(S(=O)(=O)c3ccc(F)c(Cl)c3)CC2)o1
-14%	4%	0.0%	3	CC(C)CCN(CCC(C)C)C(=O)Cc1c(O)c2ccccc2[nH]c1=O
-22%	-10%	u	-4	COc1ccc(OC)c(NC(=O)CSC2=C(C#N)C(c3ccco3)C3=C(CCCC3=O)N2)c1 (centres undefined)
-6%	-31%	-2.0%	1	CCCCn1nnc(NC(=O)c2ccco2)n1
-3%	-12%	0.6%	-5	CCNc1nc(NCC)nc(OCCOC(=O)c2ccccc2)n1
-11%	0%	0.0%	x	CCOC(=O)C1=C(CN2CCN(C(=O)c3ccco3)CC2)NC(=O)NC1c1ccc(Cl)cc1 (centres undefined)
-4%	6%	-3.7%	-8	COC(=O)c1cn(-c2ccc(Cl)cc2)c(=O)c2ccccc12
0%	-1%	1.2%	x	COc1ccc(OCc2cc(C(=O)NC(C)Cc3cccnc3)no2)c(Cl)c1 (centres undefined)
-7%	-22%	0.7%	x	CN(c1ccc(O)cc1)c1nc(-c2cccnc2)cs1
0%	-9%	-5.8%	2	CCc1cc2c(=O)c(-c3nc4ccccc4[nH]3)coc2cc1OC(=O)N1CCOCC1
0%	-31%	1.3%	x	CCCCc1ccc(NC(=O)Nc2cccnc2)cc1
7%	-9%	-0.1%	-4	O=C(CC12CC3CC(CC(C3)C1)C2)N1CCOCC1
3%	0%	6.2%	2	O=C(O)Cn1nc(C(F)(F)F)c2c1CCCC2
-11%	-1%	0.1%	-3	COc1cccc(CN2CCNC(=O)C2CC(=O)NCCn2nc(C)cc2C)c1OC (centres undefined)
9%	-5%	2.1%	-1	Fc1ccc(OCc2nn3cnnc3s2)cc1
-16%	-1%	u	7&-7	CCN(CC)CCCN1C=C2C(=O)C(C)(OC(=O)C3CCCC3)C(=O)C(c3ccccc3)=C2C=C1CCCC(=O)OC (centres undefined)
6%	4%	-0.3%	x	COc1cc2c(cc1OC)CN(C(=O)CNC(=O)c1ccc(OC(F)F)cc1)CC2
10%	-4%	8.0%	x	Cn1c(N)c(S(=O)(=O)N2CCN(c3cccc(Cl)c3)CC2)c(=O)n(C)c1=O
-3%	-6%	0.6%	-5	COc1ccc(/C=C/C(=O)OCC(=O)NCc2cccs2)cc1OC
15%	-59%	-10%	-6	N/C(=N\OC(=O)CCCc1ccccc1)c1ccccn1
-3%	x	0.7%	x	CC[C@H]1c2[nH]c3ccccc3c2C[C@H]2C(=O)N(c3ccc(F)cc3)C(=O)N21
-4%	-4%	-2.9%	x	CCOc1ccc(C2/C(=C(\O)c3ccc4c(c3)OCCO4)C(=O)C(=O)N2CCCN2CCOCC2)cc1OC (centres undefined)
-12%	-37%	-0.4%	x	COc1ccccc1NC(=O)CSc1nc2sc3c(c2c(=O)n1-c1ccccc1)CCN(C)C3
1%	17%	-0.2%	x	CCS(=O)(=O)Nc1ccc(C2=NN(C(=O)c3ccco3)C(c3cccs3)C2)cc1 (centres undefined)
-13%	-1%	0.4%	x	CCOC(=O)c1ccc(NC(=O)CSc2nnc(CC)o2)cc1
-16%	-6%	4.6%	x	COc1ccc(-c2cc(C(=O)Nc3cccnc3Cl)no2)cc1
-4%	-19%	0.4%	10	O=C(NCc1ccco1)c1ccc(OCC2CCCO2)cc1 (centres undefined)
6%	-14%	0.5%	x	Cc1cc(C)n(CC(O)COc2ccc(C(C)(C)C)cc2)n1 (centres undefined)
2%	-12%	1.1%	3	O=C(Nc1ccc2oc(-c3cccnc3)nc2c1)c1cccnc1

Individual results from above.
Rango complex inh with `CCOC(=O)C1=C(CN2CCN(C(=O)c3ccco3)CC2)NC(=O)NC1c1ccc(Cl)cc1` (centres undefined) : 0.0%
GLA inh pH 4.5 with `O=C(CC12CC3CC(CC(C3)C1)C2)N1CCOCC1` : -4

Remaining list, next part:
Rango dissoc inh	miR-21 FLuc	Rango complex inh	GLA inh pH 4.5	mol
-2%	-1%	-0.2%	x	Cc1ccc(S(=O)(=O)N2C(=O)CCC2C(=O)O/N=C(\N)c2ccc([N+](=O)[O-])cc2)cc1 (centres undefined)
-9%	14%	-2.9%	x	Cc1nn(-c2ccc(Cl)cc2)c2[nH]c(CCl)cc(=O)c12
-5%	x	-0.4%	x	CCn1c(SCc2nc3ccccc3s2)nc2cc(S(=O)(=O)N3CCOCC3)ccc21
0%	x	-0.6%	x	COc1ccc(C(=O)NCC(c2ccco2)N2CCCC2)cc1S(=O)(=O)N1CCCCC1C (centres undefined)
4%	x	2.1%	x	COc1ccc(OC)c(NC(=O)CN2c3cccc4cccc(c34)S2(=O)=O)c1
-1%	-1%	-0.8%	x	CCN1CCN(c2ccc(NC(=O)c3cc(OC)c(OC)c(OC)c3)cc2)CC1
-2%	0%	-3.6%	-9	Cc1ccc(NS(=O)(=O)c2ccc(N3C(=O)CCC3=O)cc2)cc1
13%	x	9.4%	x	O=C(Nc1ccc(F)c(Cl)c1)c1ccccc1
1%	1%	4.6%	x	COc1ccc(NC(=O)CCCc2nnc3n(C)c(=O)c4sccc4n23)cc1
x	-6%	x	7	Cc1ccc(-n2c(=O)c3sccc3n(Cc3cc(=O)n4ccccc4n3)c2=O)cc1F
10%	x	-1.2%	x	Cc1ccc2nc(SCC(=O)c3c(N)n(C4CC4)c(=O)[nH]c3=O)[nH]c2c1
-10%	x	u	x	COC(=O)Nc1ccc2ccc3c(NC(=O)OC)ccc4ccc1c2c43
17%	27%	-1.5%	-10	CC(NC(=S)Nc1ccc(OC(F)F)c(Cl)c1)C(C)(C)C (centres undefined)
-16%	-15%	-0.7%	5	Cc1ccc2nc(SCc3nnc(-c4ccccc4[N+](=O)[O-])o3)c(C#N)cc2c1
-18%	-10%	u	0	C/C(=N\NC(=O)c1cccc(S(=O)(=O)N2CCOCC2)c1)c1ccco1
0%	-9%	-1.7%	6	CCCn1c(SCC(=O)c2ccc3c(c2)OCCO3)n[nH]c1=O
-2%	5%	u	x	CSc1ccc(C2NC(=O)CCC2[N+](=O)[O-])cc1 (centres undefined)
21%	-1%	0.3%	-30	COc1ccc(CN(C)C(=O)c2cnc(OC)cc2C(F)(F)F)c(OC)c1
-8%	1%	-1.3%	1	Cc1ccccc1C(=O)Nc1ccc(Br)cn1
2%	4%	2.3%	-3	Cn1c(CNC(=O)OC(C)(C)C)nnc1SCc1c(Cl)cccc1Cl
-13%	0%	-0.5%	-28	CNC(=O)C(=O)NCCCN1CCOCC1
14%	-13%	-2.6%	5	Cc1ccc2c(c1)cc(CN(CCc1ccccc1)C(=O)N1CCOCC1)c1nnnn12
10%	4%	u	-1	Cc1nn(CC(=O)N/N=C/c2ccc(F)cc2)c(C)c1[N+](=O)[O-]
4%	23%	-1.1%	-11	Cc1ccc(C)c(N2CCN(C(=O)c3ccc(CS(=O)(=O)c4ccccc4C)o3)CC2)c1
0%	2%	u	-2	Cc1c(NS(=O)(=O)c2cccc(C(=O)OCC(=O)N(C)C3CCCCC3)c2)c(=O)n(-c2ccccc2)n1C
-20%	0%	u	x	Cc1cc(C)cc(C(=O)NC(CC(N)=O)c2ccc(N3CCC(N4CCCCC4)CC3)c([N+](=O)[O-])c2)c1 (centres undefined)
11%	-2%&-1%	1.9%	1	Cc1ccc(CNC(=O)C2CCN(S(=O)(=O)N3CCCCC3)CC2)cc1
-13%	-1%	-1.8%	1	C=CCN=C1SC(CC)C(=O)N1S(=O)(=O)c1ccc(C)cc1 (centres undefined)
7%	-1%	1.4%	x	COc1ccc(CNC(=O)c2ccc(CS(=O)Cc3ccc(Cl)cc3)o2)cc1 (centres undefined)
x	1%	x	-8	CCOc1ccc(-c2nc(-c3ccc(OC)c(OC)c3)no2)cc1OCC
1%	x	-0.8%	x	CCN(CC(=O)Nc1c(F)cccc1F)C(=O)Cc1ccc(OC)c(S(=O)(=O)N2CCOCC2)c1
2%	0%	-2.0%	6	CCN1CCN(C(c2cccs2)C(C)NC(=O)NC2CCCCC2)CC1 (centres undefined)
9%	-1%	8.4%	5	COCCCNc1nc2ccccc2nc1NS(=O)(=O)c1ccc(C)cc1C
-14%	-16%	0.1%	-5	O=C(CN(C(=O)Cn1nnc(-c2cccs2)n1)c1ccc2c(c1)OCCO2)NC1CCCCC1
-7%	0%	-2.7%	-1	S=C(Nc1cccnc1)Nc1cccc2cnccc12
13%	-1%	-0.7%	5	Cc1ccc(NC2=C(Cl)C(=O)N(C3CCCCC3)C2=O)cc1
-2%	-59%	-0.6%	2	Oc1cccc2ccc(/C=C/c3ccc(Br)s3)nc12
-22%	-41%	0.3%	5	Nc1cc(N)nc(SCC(=O)c2ccccc2)n1
-6%	23%	-3.7%	-3	Cc1csc(SCC(=O)c2cc(C)n(Cc3cccs3)c2C)n1
-15%	-5%	-0.3%	0	Cc1ccccc1NC(=O)C1C2/C=C\CCCCC21 (centres undefined)

2 of the compounds above, with each value named:
COc1cccc(CN2CCNC(=O)C2CC(=O)NCCn2nc(C)cc2C)c1OC (centres undefined)
  Rango dissoc inh: -11%	miR-21 FLuc: -1%	Rango complex inh: 0.1%	GLA inh pH 4.5: -3
Fc1ccc(OCc2nn3cnnc3s2)cc1
  Rango dissoc inh: 9%	miR-21 FLuc: -5%	Rango complex inh: 2.1%	GLA inh pH 4.5: -1

Continuation:
Rango dissoc inh	miR-21 FLuc	Rango complex inh	GLA inh pH 4.5	mol
-10%	3%	4.1%	6	Cc1ccc(S(=O)(=O)N2CCC(=O)N(CCOCc3ccc(Cl)cc3)CC2)cc1
18%	0%	-2.2%	4	C=CCc1ccccc1OCC(=O)O
26%	-33%	0.7%	5	O=C(N/N=C/c1ccc(Br)s1)Nc1ccccc1
-10%	-13%	u	x	CCCN(CCC)Cc1c(C(=O)N/N=C/c2ccoc2)nnn1-c1nonc1N
-4%	1%	-4.4%	-8	O=C(N/N=C/c1cccc([N+](=O)[O-])c1O)c1cccs1
-25%	0%	u	14	COc1ccc(-c2c(C(F)(F)F)[nH]n3c(=O)cc(-c4ccccc4)nc23)cc1
10%	26%	0.1%	-1	CCOc1ccc(NS(=O)(=O)c2cnc(Cl)c(Cl)c2)cc1
24%	2%	1.8%	x	Cc1ccccc1CN1CCC(n2nccc2NC(=O)CCCc2ccccc2)CC1
-24%	-67%	-3.8%	-6	Cn1c(C(=O)NC2CCCCC2)cc2sccc21
33%	-46%	0.9%	-1	Cc1cccc(NC(=O)c2ccc3ccccc3n2)n1
18%	-17%	-2.8%	-4	COc1ccc(Nc2nc(NCc3ccco3)nc(N/N=C/c3ccccc3Cl)n2)cc1
0%	0%	-0.1%	-23	CN(C)S(=O)(=O)Oc1ccc(Cl)cc1C(=O)Nc1cccc(C(F)(F)F)c1

Assay outcomes: PubChem, National Center for Advancing Translational Sciences (NCATS)
